Screening data as filed in PubChem.
2A Renilla = lowers the Renilla signal of an FMDV 2A StopGo reporter | Potency, µM (highest dose often 57.5 µM), for inactives: at the top dose signal change, negative = less light | hit rate 0.32% among 120,000 | HEK cells with a luciferase reporter of 2A StopGo recoding | AID 1745857; active means well fitted falling curve with a large enough effect; inconclusive means small, poorly fitted or top-dose-only effect; inactive means no such curve, though single readings can be large or run the other way; also: nearly all actives have a fitted effect of over 55% in size; overnight with compound
StopGo FLuc = FMDV 2A StopGo reporter, firefly signal; hit rate 0.23% among 120,000; AID 1745856; HEK cells with a luciferase reporter of 2A StopGo recoding; Potency, µM (series often up to 57.5 µM), without a hit: at the top dose signal change, negative = less light; active = well fitted falling curve with a large enough effect; inconclusive = small, poorly fitted or top-dose-only effect; inactive = no such curve, though single readings can be large or run the other way; also: nearly all actives have a fitted effect of over 60% in size; overnight with compound
An asterisk follows results filed as active; ? = inconclusive; & = joins results of further samples; [ ] = another dose, or the depositor's remark. % is scaled to controls: 0 for no effect and ±100 for the full control effect; potency is read from the fitted curve at half-maximal effect.

Each structure is followed by: 2A Renilla, StopGo FLuc
(1) CN1CCN(C(=O)c2cccc(C(F)(F)F)c2)CC1
→ -5%, -2%
(2) COc1ccc(S(=O)(=O)N2CCN(Cc3ncc(-c4ccc(F)cc4)o3)CC2)cc1
→ ?, ?
(3) Cc1cc(F)ccc1NC(=O)C1CCN(S(=O)(=O)c2ccc3c(c2)CCCC(=O)N3)CC1
→ -11%, -15%
(4) COc1cc2[nH]c(C(=O)N3CCN(C)CC3)cc2c(OC)c1OC
→ 8%, 20%
(5) Cc1ccc(C)c(N2CCN(CCCNC(=O)c3ccc4nc(C(C)C)oc4c3)CC2)c1
→ 2%, ?
(6) Cc1ccccc1CNC(=O)Nc1ccc2c(c1)N(C)C(=O)c1ccccc1S2
→ ?, ?
(7) Cc1nnc2c(N3CCN(c4ccc(F)cc4)CC3)nc3ccc(C(=O)c4ccccc4)cc3n12
→ -1%, 1%
(8) COc1cc(C2CC(=O)c3c([nH]c(C(=O)OC4CCCC4)c3C)C2)cc(OC)c1OC (stereo not given)
→ 8.9µM*, ?
(9) CCc1ccc(NC(=O)Cn2c(=O)n(Cc3ccccc3)c(=O)c3oc4ccccc4c32)cc1
→ -2%, -10%
(10) COc1ccc(-c2nc(CCNC(=O)c3cccs3)cs2)cc1
→ ?, ?
(11) CC(C)N1C(=O)S/C(=C/c2cn(CC#N)c3ccccc23)C1=O
→ 3%, 13%
(12) Cc1ccc(Cl)cc1N1CCN(S(=O)(=O)c2c(C)[nH]c(C)c2C(=O)N2CCCCC2)CC1
→ 22%, -10%
(13) O=C(OCC(=O)N1CCCC1=O)c1cc(-c2ccco2)nc2ccccc12
→ -4%, 1%
(14) COc1ccc(-c2cc3ccc(OS(=O)(=O)c4ccc(F)cc4)cc3oc2=O)cc1OC
→ 7%, 13%
(15) CCCCn1cnc2c1c(=O)n(CC(=O)Nc1c(CC)cccc1CC)c(=O)n2CCC
→ 2%, 9%
(16) COc1ccccc1OCCN1C(=O)C2(SC(NC(C)=O)=NN2C(C)=O)c2ccccc21 (stereo not given)
→ 27%, -4%
(17) Cn1c(=O)[nH]c(=O)c2c1nc(SCCO)n2Cc1ccc(Cl)cc1
→ 10%, 16%
(18) CCCN(C(=O)c1coc(=O)c2ccccc12)c1ccccc1C
→ -21%, ?
(19) O=C(CCS(=O)(=O)Cc1ccccc1)Nc1cc(C(F)(F)F)ccc1Cl
→ -5%, -5%
(20) CCc1c(C(=O)Nc2ccccc2)csc1C
→ 11%, 135%[activator]
(21) COCC(=O)Nc1ccc(-c2nc3ccccc3o2)cc1
→ 12%, 108%[activator]
(22) ClC1=C(Cl)[C@]2(Cl)[C@@H]3[C@@H]4C[C@@H]([C@H]5O[C@@H]45)[C@@H]3[C@@]1(Cl)C2(Cl)Cl
→ -16%[114 µM], -12%[115 µM]
(23) CC(=O)Nc1nonc1-c1nnc(SCC(=O)Nc2ccc(C)cc2)n1-c1ccccc1
→ 26%, -6%
(24) COc1ccc(C2=NN(CC(=O)NCCc3ccc(OC)c(OC)c3)C(=O)CC2)cc1
→ -8%, -17%
(25) CC(C)OCCCNC(=O)CC1CC2CCC1C2 (stereo not given)
→ 34%[activator], 8%
(26) O=C(/C=C/c1cccs1)Oc1ccc(C(=O)c2ccccc2)cc1
→ 0%, 0%
(27) Cc1ccc(NC(=O)NCc2ccc3c(c2)CCN3C(=O)c2ccccc2)c(Cl)c1
→ -13%, 2%
(28) O=C(NCCCN1CCOCC1)c1csc(Nc2cccc3ccccc23)n1
→ ?, -16%
(29) O=C(COC(=O)c1cc2ccccc2[nH]1)Nc1ccc2ccccc2c1
→ -8%, 13%
(30) CC(NC(=O)C(Cc1ccccc1)NC(=O)OC(C)(C)C)c1ccc(O)cc1 (stereo not given)
→ 38%[activator], 6%
(31) CSc1nc(N)c2c(n1)NC1=C(C(=O)CC(C)(C)C1)C2c1ccc(F)cc1 (stereo not given)
→ 5%, 1%
(32) COc1cccc(NC(=O)Nc2ccc3nc(N4CCOCC4)cc(C)c3c2)c1
→ 12%, 12%
(33) C(=N\N=C\c1c[nH]c2ccccc12)/c1c[nH]c2ccccc12
→ 1%, 2%
(34) Fc1ccc(N/N=C/c2ccccc2Br)c(F)c1
→ 24%, 76%[activator]
(35) O=C(CSc1cnc2cc(S(=O)(=O)N3CCCCC3)ccc2n1)Nc1cccc(Cl)c1
→ 17%, 17%
(36) CC(NCc1cccc(C#N)c1)c1cc2ccccc2o1 (stereo not given)
→ 20%, 11%
(37) O=C(CCCc1c[nH]c2ccccc12)NCc1ccc(Cl)cc1
→ 6%, 21%
(38) CC(=O)/C=C/c1c(C)oc2ccccc12
→ -3%, 29%
(39) CC(=O)Nc1ccc(S(=O)(=O)NCc2ccc3c(c2)CCN3C(C)=O)cc1
→ 41%[activator], 0%
(40) Cn1nc(C(=O)Nc2ccnn2Cc2ccc(Br)cc2)c2ccccc2c1=O
→ 114%[activator], 5%
(41) NS(=O)(=O)c1ccc(N/N=C/C=C/c2ccccc2[N+](=O)[O-])c([N+](=O)[O-])c1
→ -10%[1.06 µM], 15%
(42) N#Cc1ccccc1COC(=O)c1ccccc1NCCO
→ 17%, 0%
(43) O=C(c1ccc(F)c(F)c1)N1CCSc2ccccc21
→ -1%, 17%
(44) O=C(NC1CCCC1)c1ccc2c(=O)n(Cc3ccccc3)c(SCc3ccc([N+](=O)[O-])cc3)nc2c1
→ -11%, -17%
(45) Cc1ccc(Nc2cc(C(=O)NCCc3ccccc3)c3ccccc3n2)c(C)c1
→ -11%, -2%
(46) COc1cc(/C=C(/C#N)c2ccccn2)cc(Br)c1OC
→ 6%, 13%
(47) O=c1[nH]c2ccc(NCc3ccc(-c4ccccc4)o3)cc2[nH]1
→ -7%, 22%
(48) COC(=O)c1c(NC(=O)CCCOc2cccc(C)c2)sc2c1CCC2
→ 18%, 18%
(49) COc1ccc(C(=O)CSc2nnc3c(=O)n(-c4ccccc4OC)ccn23)cc1OC
→ -6%, -6%
(50) COc1ccc(N2CCN(c3ccc(-c4nc(-c5ccccc5)no4)cc3[N+](=O)[O-])CC2)cc1
→ -8%, 20%
(51) O=C(Nc1ccc2c(c1)OCCCO2)c1ccccc1OCc1ccc(F)cc1
→ 19%, 142%[activator]
(52) Cc1cc(C)cc(OCC(=O)N(Cc2ccc(C)o2)C2CCS(=O)(=O)C2)c1 (stereo not given)
→ 0%, 0%
(53) CC(COc1ccccc1)NN (stereo not given)
→ -7%, -12%
(54) Cc1ccc2nc(N(Cc3cccnc3)C(=O)c3cccs3)sc2c1
→ -1%, 30%[activator]
(55) COc1ccc(-c2c(C(=O)O)sc3c2NC(=O)CC32C(=O)N(C)c3ccc(C(C)C)cc32)cc1 (stereo not given)
→ -12%, -1%
(56) Cc1cccc(N2CCN(C(=O)c3ccc(NC(=O)c4nsc5ccccc45)cc3)CC2C)c1 (stereo not given)
→ 12%, ?
(57) CN(C)C(=O)c1cc2c(F)cccc2[nH]1
→ 26%, 0%
(58) CCCCN(C)C(=O)CSc1nc2ccccc2nc1Cc1ccc(C)cc1
→ 57%[activator], 2%
(59) O=C(Cn1c(SCc2cccc(F)c2)nc2ccncc21)Nc1ccc(Cl)cc1F
→ -17%, -11%
(60) Cc1cc(NC(=O)CCc2ncc(-c3ccc(F)cc3)o2)no1
→ -12%, 9%

Remaining list, next part
Each structure is followed by: 2A Renilla, StopGo FLuc
(61) CCOC(=O)c1cccc(NC(=O)c2nc3ccccc3nc2N2CCCC2)c1
→ 9%, 22%
(62) O=C(Nc1cccc(OCc2ccc(F)cc2)c1)c1ccncc1
→ ?, ?
(63) COc1ccc(C)cc1NC(=O)C(NS(=O)(=O)c1cccc2nsnc12)c1ccccc1 (stereo not given)
→ 33%[activator], -21%
(64) COc1ccc(/C=C/C(=O)c2ccc(OC(F)F)c(OC)c2)c(OC)c1
→ 41%[activator], 0%
(65) Cc1nc2cc(NC(=O)c3ccccc3Cl)ccc2o1
→ 17%, 0%
(66) CC1(C(=O)NCc2ccc(Cl)cc2)Cn2c(ccc2-c2ccco2)C(=O)N1C1CC1 (stereo not given)
→ 34%[activator], -4%
(67) CC(NC(=O)c1ccc(Br)cc1)C1CC2CCC1C2 (stereo not given)
→ 31%[activator], 27%
(68) N#Cc1ccc(Oc2cccc(N)c2)cc1
→ 0%, 32%[activator]
(69) CCOCCCNC(=O)/C=C/c1ccccc1
→ 11%, 79%[activator]
(70) COc1cccc(-c2nc(S(=O)(=O)c3ccc(C)cc3)c(N3CCOCC3)o2)c1
→ 25%, 4%
(71) Cc1ccc(/C=C(\C#N)C(=O)NC2CCCC2)o1
→ 31%[activator], 213%[activator]
(72) O=[N+]([O-])c1ccccc1S(=O)(=O)Nc1cccc(-n2cccn2)c1
→ 227%[activator], 0%
(73) CC(C)Oc1ccccc1-c1nc(SCC(=O)c2ccc(F)cc2)n[nH]1
→ 28%, 0%
(74) CSc1nc2c(c(=O)n(C)c(=O)n2C)n1CCCc1ccccc1
→ -1%, 13%
(75) CN(C)c1cccc2c(C(=O)c3ccccc3)ccc(N(C)C)c12
→ 2%, -13%
(76) CCOc1ccccc1NC(=O)Nc1nnc(N2CCCC(C)C2)s1 (stereo not given)
→ -21%&-25%, -9%&0%
(77) FC(F)c1n[nH]c(C(F)F)c1Cl
→ 2%, 8%
(78) CCNC(=O)NCCC12CC3CC(CC(C3)C1)C2
→ 11%, 36%[activator]
(79) O=C(Nc1cc(F)ccc1F)C1CCN(C(=O)c2cnn(-c3ccccc3)c2-n2cccc2)CC1
→ 4%, -4%
(80) Cc1cccc(Oc2nc3c(c(=O)n(C)c(=O)n3C)n2C)c1C
→ -8%, -6%

Part of the list above in order of count of non-hydrogen atoms, ascending:
Each structure is followed by: 2A Renilla, StopGo FLuc
(77) FC(F)c1n[nH]c(C(F)F)c1Cl
→ 2%, 8%
(57) CN(C)C(=O)c1cc2c(F)cccc2[nH]1
→ 26%, 0%
(68) N#Cc1ccc(Oc2cccc(N)c2)cc1
→ 0%, 32%[activator]
(69) CCOCCCNC(=O)/C=C/c1ccccc1
→ 11%, 79%[activator]
(78) CCNC(=O)NCCC12CC3CC(CC(C3)C1)C2
→ 11%, 36%[activator]
(1) CN1CCN(C(=O)c2cccc(C(F)(F)F)c2)CC1
→ -5%, -2%
(43) O=C(c1ccc(F)c(F)c1)N1CCSc2ccccc21
→ -1%, 17%
(36) CC(NCc1cccc(C#N)c1)c1cc2ccccc2o1 (stereo not given)
→ 20%, 11%
(33) C(=N\N=C\c1c[nH]c2ccccc12)/c1c[nH]c2ccccc12
→ 1%, 2%
(10) COc1ccc(-c2nc(CCNC(=O)c3cccs3)cs2)cc1
→ ?, ?
(75) CN(C)c1cccc2c(C(=O)c3ccccc3)ccc(N(C)C)c12
→ 2%, -13%
(76) CCOc1ccccc1NC(=O)Nc1nnc(N2CCCC(C)C2)s1 (stereo not given)
→ -21%&-25%, -9%&0%
(73) CC(C)Oc1ccccc1-c1nc(SCC(=O)c2ccc(F)cc2)n[nH]1
→ 28%, 0%
(13) O=C(OCC(=O)N1CCCC1=O)c1cc(-c2ccco2)nc2ccccc12
→ -4%, 1%
(40) Cn1nc(C(=O)Nc2ccnn2Cc2ccc(Br)cc2)c2ccccc2c1=O
→ 114%[activator], 5%
(32) COc1cccc(NC(=O)Nc2ccc3nc(N4CCOCC4)cc(C)c3c2)c1
→ 12%, 12%
(27) Cc1ccc(NC(=O)NCc2ccc3c(c2)CCN3C(=O)c2ccccc2)c(Cl)c1
→ -13%, 2%
(8) COc1cc(C2CC(=O)c3c([nH]c(C(=O)OC4CCCC4)c3C)C2)cc(OC)c1OC (stereo not given)
→ 8.9µM*, ?
(16) COc1ccccc1OCCN1C(=O)C2(SC(NC(C)=O)=NN2C(C)=O)c2ccccc21 (stereo not given)
→ 27%, -4%
(55) COc1ccc(-c2c(C(=O)O)sc3c2NC(=O)CC32C(=O)N(C)c3ccc(C(C)C)cc32)cc1 (stereo not given)
→ -12%, -1%
(7) Cc1nnc2c(N3CCN(c4ccc(F)cc4)CC3)nc3ccc(C(=O)c4ccccc4)cc3n12
→ -1%, 1%
(44) O=C(NC1CCCC1)c1ccc2c(=O)n(Cc3ccccc3)c(SCc3ccc([N+](=O)[O-])cc3)nc2c1
→ -11%, -17%

From compound 79 up to 80, copied from above:
Each structure is followed by: 2A Renilla, StopGo FLuc
(79) O=C(Nc1cc(F)ccc1F)C1CCN(C(=O)c2cnn(-c3ccccc3)c2-n2cccc2)CC1
→ 4%, -4%
(80) Cc1cccc(Oc2nc3c(c(=O)n(C)c(=O)n3C)n2C)c1C
→ -8%, -6%

The list continues:
Each structure is followed by: 2A Renilla, StopGo FLuc
(81) Cc1cccc(-n2cc(-c3ccccc3)c3c(NC(C)C)ncnc32)c1
→ -10%, -12%
(82) CCc1nn(CC(=O)NCCCc2ccccc2)c(=O)c2cc3cc(F)ccc3n12
→ -5%, 2%
(83) Cc1cccc(OCCOc2ccc3ccc(=O)oc3c2)c1
→ 7%, 3%
(84) O=C(COCc1cc(-c2cccs2)on1)N1CCN(c2ccccc2)CC1
→ 19%, -16%
(85) Cc1ccc(Cl)cc1Nc1nn2c(=O)c3ccc(C(=O)NC(C)c4ccccc4)cc3nc2s1 (stereo not given)
→ -19%, 21%
(86) Cc1ccc(NC(=O)C(=O)NCCc2sc(-c3ccc(Cl)cc3)nc2C)cc1C
→ -18%, 35%[activator]
(87) O=C(COC(=O)c1cccnc1Nc1cccc(C(F)(F)F)c1)NCc1ccco1
→ -14%, 11%
(88) Cc1ccc(-c2nc3c(C)cccn3c2Nc2ccccc2C)s1
→ -5%, 6%
(89) Cc1ccc(S(=O)(=O)N(CC(=O)N2CCCC2)Cc2ccc(Br)cc2)cc1
→ 126%[activator], 7%
(90) Cc1nc(-c2cccc(F)c2)sc1CCNC(=O)Cc1ccc(F)cc1
→ 13%, 8%
(91) COC(=O)c1ccc2oc(=O)c(S(=O)(=O)c3ccc(Cl)cc3)cc2c1
→ 5%, 1%
(92) Cc1ccc(Cl)cc1N(C)C(=O)Cn1nc(Cc2cccnc2)c2ccccc2c1=O
→ 45%&14%[activator], 22%&-21%
